KCNQ2 block: KCNQ2 potassium channel inhibitors, primary screen, cell-based, CHO-K1, FluxOR thallium flux, B-score (AID 2156); O88943; 20 min; hits give low values; only compounds with negative scores are shown here; some inactives read as strong as hits; B-score at 10 µM; 1.1% of 310,000 active;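 active means fluorescence ratio B-score at most minus 3 library SDs, with starting brightness B-score within 2 library SDs, cut at about -5.5 in these data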
Target sequence (O88943 whole entry, looked up): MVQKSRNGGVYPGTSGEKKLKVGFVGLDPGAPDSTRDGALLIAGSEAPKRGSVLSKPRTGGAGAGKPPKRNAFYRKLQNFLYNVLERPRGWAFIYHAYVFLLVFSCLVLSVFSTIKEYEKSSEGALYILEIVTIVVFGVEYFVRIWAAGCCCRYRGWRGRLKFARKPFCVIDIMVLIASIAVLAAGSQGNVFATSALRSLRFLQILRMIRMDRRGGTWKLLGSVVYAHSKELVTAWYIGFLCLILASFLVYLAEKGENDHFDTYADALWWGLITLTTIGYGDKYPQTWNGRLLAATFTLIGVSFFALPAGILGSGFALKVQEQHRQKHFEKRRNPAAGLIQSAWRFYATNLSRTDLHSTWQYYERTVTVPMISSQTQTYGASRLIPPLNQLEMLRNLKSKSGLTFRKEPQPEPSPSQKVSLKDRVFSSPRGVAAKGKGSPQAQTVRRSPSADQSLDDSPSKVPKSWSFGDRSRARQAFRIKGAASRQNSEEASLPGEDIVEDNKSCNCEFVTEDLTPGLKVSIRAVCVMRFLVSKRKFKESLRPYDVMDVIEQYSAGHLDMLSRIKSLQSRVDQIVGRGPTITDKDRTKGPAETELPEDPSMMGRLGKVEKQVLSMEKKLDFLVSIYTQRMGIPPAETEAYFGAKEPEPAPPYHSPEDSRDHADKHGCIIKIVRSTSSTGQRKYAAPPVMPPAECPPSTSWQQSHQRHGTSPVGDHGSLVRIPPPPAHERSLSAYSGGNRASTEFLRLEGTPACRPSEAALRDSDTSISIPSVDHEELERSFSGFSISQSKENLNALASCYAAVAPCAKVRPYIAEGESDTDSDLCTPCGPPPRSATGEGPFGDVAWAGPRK
KCNQ2 block baseline: second read-out of KCNQ2 block, no call of its own (marks repeat the call); B-score; measured here: initial fluorescence intensity artifact check;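 brightness before thallium and not channel activity; 0 = typical well and far values either way flag optical interference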
* = called active by the depositor; i = inactive; & = joins results of further samples. This is a subset; the hit share may differ from the screen's.

SMILES | KCNQ2 block | KCNQ2 block baseline
CC(=O)c1cccc(NC(=O)c2noc3c2CCc2ccccc2-3)c1 | i | -2.39
CCCCNc1cnn(-c2ccccc2)c(=O)c1Cl | i | -3.25
COc1cccc(NC(=O)CSc2nc3scc(C)c3c(=O)[nH]2)c1 | i | 0.19
O=C(/C=C/c1ccc[nH]1)c1ccc(F)cc1 | i | 0.05
COc1ccc(NC(=S)NCCCN2CCCC2=O)c(OC)c1 | i | -0.88
Cc1cc(-c2nn(-c3ccccc3F)cc2CN2CCCC(CO)C2)c(C)s1 (stereo not given) | i | -2.22
O=C(Nc1ccc(S(=O)(=O)N2CCCCC2)cc1)c1cnccn1 | i | -0.43
CCCCOC(=O)c1ccc(NS(=O)(=O)c2cc(-c3nnnn3CC)ccc2OC)cc1 | i | 0.51
Cc1ccccc1/C=C/C12NC(=O)CN1c1ccccc1C2(C)C (stereo not given) | i | -0.95
COc1cc(C(=O)N2CCN(C(=O)c3ccco3)CC2)cc(OC)c1OC | i | -0.72
CCCOC(=O)c1ccc(NC(=O)c2cc(OC)c(OC)c(OC)c2Br)cc1 | i | -2.19
Cc1cc(C(=O)NC2CC2)c2ccccc2n1 | i | 0.84
COc1ccccc1Nc1nn2c(=O)c3ccc(C(=O)N4CCC(C)CC4)cc3nc2s1 | i | 0.78
O=C(CCNC(=O)c1ccccc1Cl)Nc1cc(S(=O)(=O)N2CCOCC2)ccc1N1CCOCC1 | i | -2.45
Cc1ccc(Nc2ncnc3c2nnn3Cc2ccccc2)cc1 | i | -1.86
NC(=O)c1ccccc1NS(=O)(=O)Cc1ccc(Cl)cc1 | i | -1.17
COc1ccccc1CN1CCN(S(=O)(=O)c2ccccc2)CC1 | i | 0.06
CCN(CC)S(=O)(=O)c1ccc(N2C(=O)CC2(/C=C/c2ccccc2)C(=O)NC2CCCC2)cc1 (stereo not given) | i | 0.03
O=C(NC1CC1)C1=C[C@@H](c2ccccc2)C[C@@H](OCc2ccc(CO)cc2)O1 | i | 0.34
c1ccc(CNCCC(Cc2ccccc2)c2ccco2)cc1 (stereo not given) | i | 0.42
NC(=O)c1nsc(C(=O)N(Cc2cccnc2)C(C(=O)NC2CCCCC2)c2ccc(F)cc2)c1N (stereo not given) | i | 1.15
Cc1ccc(N(C(=O)CNC(=O)c2ccco2)C(C(=O)NC2CCCC2)c2ccncc2)cc1 (stereo not given) | i | 1.8
CC(C)C(=O)Nc1cc(S(=O)(=O)Nc2ccc(Cl)cc2)ccc1Cl | i | 0.73
CN(C(=O)COC(=O)c1ccccc1SCC(=O)N1CCCC1)c1ccccc1 | i | 0.91
CCSc1nnc(NC(NC(=O)c2ccco2)(C(F)(F)F)C(F)(F)F)s1 | i | 0.63
Cc1cc(C)c(S(=O)(=O)NCC(=O)NCc2ccco2)c(C)c1 | i | -1.69
N#CCC(=O)N/N=C/c1cn(Cc2ccc(Cl)c(Cl)c2)c2ccccc12 | i | 0.88
COc1ccc(CN(C)C(=O)c2ccc(OCC(=O)Nc3cccc(C(F)(F)F)c3)c(OC)c2)c(OC)c1 | i | -0.39
O=c1oc2c3c4c(cc2c(C(F)(F)F)c1CCN1CCOCC1)CCCN4CCC3 | i | 8.31
COc1ccc(NC(=S)N/C(=N/CS(=O)(=O)c2ccccc2)c2ccccc2)cc1 | i | 0.91
Cc1ccc(CN2CCN(Cc3cc4ccccc4o3)CC2CCO)cc1 (stereo not given) | i | -0.07
COc1cccc2cc(C(=O)NCc3ccc(Cl)cc3)c(=O)oc12 | i | 0.14
N=C(N)Sc1nc(N2CCCCC2)nc(N2CCCCC2)n1 | i | -0.1
Cc1nc2ccccc2nc1OCc1ccccc1 | i | 1.33
O=C(CSc1nc2cc(Cl)ccc2o1)N1CCOCC1 | i | 1.13
Cc1cccc(NC(=S)N(CCCN2CCCC2)Cc2cccn2Cc2ccc(Cl)cc2)c1 | i | -1.39
CN1C[C@@H]2C[C@@H](C3=Cc4cc(Cl)ccc4OC3)N3CCC[C@@]23C1=O | i | 0.1
COc1ccc(/C=C2\SC(=S)N(C(Cc3ccccc3)C(=O)O)C2=O)cc1 (stereo not given) | i | -0.67
CN(C)CCN(C(=O)c1ccc2c(c1)CCCC2)c1nc2cc3c(cc2s1)OCCO3 | -7.82* | -1.53*
CCOC(=O)c1ccc(NC(=O)CSc2nnc(-c3cccs3)n2CC)cc1 | i | -0.65
NC(CCCCc1ccccc1)c1cccc2ccccc12 (stereo not given) | i | 2.4
Cc1cc(NC(=O)CCC(=O)N(CC(=O)NCC2CCCO2)c2ccc(C(C)C)cc2)no1 (stereo not given) | i | 0.1
CC1(OC(=O)C2CCCC2)C(=O)C=C2C=C(c3ccsc3)N(c3ccccc3)C=C2C1=O (stereo not given) | i | 0.47
O=C(CS(=O)(=O)c1ccccc1)c1ccc2c(c1)OCCO2 | i | -1.93
Cc1cccc(NS(=O)(=O)c2nnc(NC(=O)c3ccccc3F)s2)c1 | i | -0.32
Cc1ccccc1OCC(O)Cn1c(SC(C)C)nc2c1c(=O)[nH]c(=O)n2C (stereo not given) | i | -0.57
CN(C)[C@@H]1CCC[C@@H]1OC(=O)C(c1ccccc1)c1ccccc1 | i | -1.28
Cc1nc(C)c(-c2ccc(SCc3ccccc3F)nn2)s1 | i | -0.72
O=C1c2cccnc2C(=O)N1c1cccc(-c2nc3ccccc3o2)c1 | i | 0.5
COc1ccc(CCNC(=O)[C@H](CC(C)C)NC(=O)N2CCn3c2nc2ccccc23)cc1OC | i | 0.01
O=C(CCNC(=O)c1ccc(Br)cc1)NCc1ccccc1F | i | 0.68
CCN(Cc1ccc(OC)c(F)c1)C(=O)c1oc2ccccc2c1COC | i | -1.17
O=C(CCc1nc2ccccc2[nH]1)Nc1ccc2c(c1)OCCO2 | i | 0.93
CCn1cc(CNC(=O)c2cc([N+](=O)[O-])c(C)c([N+](=O)[O-])c2)cn1 | i | 0.01
O=C(CN1C(=O)N/C(=C\c2ccccc2OCc2ccc(C(=O)O)cc2)C1=O)Nc1ccc(F)cc1 | i | 0.58
CCOc1ccc(CCNC(=O)CN(C)S(=O)(=O)c2cccc3nsnc23)cc1OCC | i | -3.41
CCC1CCCCN1S(=O)(=O)c1ccc2c(c1)CCN2C(=O)C1CCC1 (stereo not given) | i | -0.18
Cc1cccc(OCC(O)Cn2c(=N)n(Cc3ccccc3)c3ccccc32)c1 (stereo not given) | i | 0.86
CC(CCc1ccccc1)NC(=O)CNC(=O)c1ccccc1Br (stereo not given) | i | -1.77
CCOc1ccc(CN(C(=O)/C=C/c2ccco2)C2CCS(=O)(=O)C2)cc1 (stereo not given) | i | 0.42

Structural class, the entries above with a COOH group
SMILES | KCNQ2 block | KCNQ2 block baseline
COc1ccc(/C=C2\SC(=S)N(C(Cc3ccccc3)C(=O)O)C2=O)cc1 (stereo not given) | i | -0.67
O=C(CN1C(=O)N/C(=C\c2ccccc2OCc2ccc(C(=O)O)cc2)C1=O)Nc1ccc(F)cc1 | i | 0.58

4 of the compounds above, as labelled records.
SMILES: CN(C)[C@@H]1CCC[C@@H]1OC(=O)C(c1ccccc1)c1ccccc1
  KCNQ2 block: i
  KCNQ2 block baseline: -1.28
SMILES: Cc1nc(C)c(-c2ccc(SCc3ccccc3F)nn2)s1
  KCNQ2 block: i
  KCNQ2 block baseline: -0.72
SMILES: O=C1c2cccnc2C(=O)N1c1cccc(-c2nc3ccccc3o2)c1
  KCNQ2 block: i
  KCNQ2 block baseline: 0.5
SMILES: COc1ccc(CCNC(=O)[C@H](CC(C)C)NC(=O)N2CCn3c2nc2ccccc23)cc1OC
  KCNQ2 block: i
  KCNQ2 block baseline: 0.01

A stretch from further up, as a working copy:
SMILES | KCNQ2 block | KCNQ2 block baseline
NC(CCCCc1ccccc1)c1cccc2ccccc12 (stereo not given) | i | 2.4
Cc1cc(NC(=O)CCC(=O)N(CC(=O)NCC2CCCO2)c2ccc(C(C)C)cc2)no1 (stereo not given) | i | 0.1

(cont.)
SMILES | KCNQ2 block | KCNQ2 block baseline
OCc1c(OCc2cccc(F)c2)ccc2ccccc12 | i | -0.46
Cc1ccc(NC(=O)C2c3ccccc3Oc3ccccc32)c(C)c1 | i | -2
CC1(C)C(=O)OC(c2ccccc2)C2(CCCC2)C1=O (stereo not given) | i | 1.28
CCOC(=O)C1=NN(c2ccccc2C)C2=NC(C)=C(C(=O)OC)C(c3cccc(OC)c3)N12 (stereo not given) | i | 1.04
O=C(O)C1CC(=O)N(CCOc2ccccc2)C1 (stereo not given) | i | -1.1
COC(=O)CN(c1ccc(C(C)C)cc1)S(=O)(=O)c1c(C)[nH]c(=O)[nH]c1=O | i | -0.67
C=CCn1c(=NC(=O)CC)n(C)c2ccccc21 | i | 0.32
COc1ccc2[nH]c(=O)c(CN(Cc3ccccc3)C(=S)NCC3CCCO3)cc2c1 (stereo not given) | i | 0.64
O=C(CCC(=O)N1CCCC1)Nc1ccc([N+](=O)[O-])cc1 | i | 0.05
CCN1/C(=C2\SC(=S)N(Cc3ccccc3)C2=O)Sc2ccccc21 | i | 0.2
COc1cc(OC)c(OC)cc1/C=C(\C#N)C(=O)NCc1cccs1 | i | 0.32
Cc1ccc(-c2cc(C(=O)Nc3ccccn3)c3ccccc3n2)o1 | i | -0.84
COCCn1c(SCC(=O)Nc2cccc(C)n2)nnc1-c1ccco1 | i | 1.45
CCOc1ccc(C(=O)NC(=S)Nc2ccccc2OC)cc1[N+](=O)[O-] | i | 3.68
COc1ccc(Nc2nc(N3CCCC3)nc3ccccc23)c(OC)c1 | i | -1.47
CCN(CC)C(=O)C1CCCN(Cc2ccccc2C(F)(F)F)C1 (stereo not given) | i | 0.75
CCCCN(CCCNC(=O)c1ccc(CS(=O)(=O)c2ccc(OC)cc2)o1)Cc1ccccc1 | i | 1.74
Nc1ccc(S(=O)(=O)Nc2ccnn2-c2ccccc2)cc1 | i | -1.2
CCN(CC)S(=O)(=O)c1ccc(C(=O)NCC(c2cccs2)N2CCOCC2)cc1 (stereo not given) | i | 2.08
O=C(NCC1CCCCC1)c1cc2ccccc2cc1O | i | -1.98
Cc1ccc(-c2cc(C(=O)N/N=C\c3cnn(C)c3C)c3ccccc3n2)cc1C | i | -0.08
COC(=O)[C@H]1[C@H]2C[C@H]3c4[nH]c5ccccc5c4CCN3C[C@@H]2CC[C@@H]1O | i | -0.78&1.17
NS(=O)(=O)c1ccc(NCCCn2ccnc2)c([N+](=O)[O-])c1 | i | 1.37
Cn1nccc1C(=O)NC1CCCc2c1cnn2-c1ccc(C(C)(C)C)cc1 (stereo not given) | i | -1.35
Cc1cc(S(=O)(=O)NCCC2=CCCCC2)ccc1Br | i | -2.26
O=C(NNC(=S)Nc1ccccc1)c1cc(-c2cccnc2)nc2ccccc12 | -6.12* | -0.84*
FC(F)c1nnc2ccc(Cl)nn12 | i | 1.05
Cc1ccc(OC(=O)CCN2C(=O)c3ccccc3C2=O)cc1C | i | -0.08
Cc1ccc(NC(=O)C2CCCN2C(=O)c2cccs2)c(C)c1 (stereo not given) | i | 0.02
CC(=O)OC1CCC2(C)C(=CCC3C2CCC2(C)C3CC3OC4(CCC(C)CN4)C(C)C32)C1 (stereo not given) | i | 0.31
COC(=O)c1sc2ccccc2c1-n1cccc1C(=O)C(=O)Nc1ccc(OC)cc1 | i | 0.23
CCN(c1ccccc1C(=O)O)S(=O)(=O)c1cccc2nsnc12 | i | -0.35
CCOC(=O)N1CCN(S(=O)(=O)CCNC(=O)c2cccc(OC)c2)CC1 | i | -0.55
CCNC(=S)N1CCN(c2ccc([N+](=O)[O-])cc2)CC1 | i | 0.91
CC1C(=O)Nc2ccccc2N1C(=O)c1ccc(F)cc1 (stereo not given) | i | -1
COc1ccc(SC[C@H](Cc2ccccc2)N2CCN(C)CCC2=O)cc1 | i | 0.23
O=C(C1=C[C@@H](C2CCCCC2)C[C@@H](OCCCCO)O1)N1CCN(Cc2ccccc2)CC1 | -5.7* | -1.14*
Cc1cc2nc3c(=O)n(CCc4ccccc4)c(=O)[nH]c3nc2cc1N | i | 7.24
COc1ccc(C2NC(=O)CCC2[N+](=O)[O-])cc1 (stereo not given) | i | -0.42
CCC(C)C(NC(=O)c1ccccc1NC(=O)c1ccco1)C(=O)NC1CCCCC1 (stereo not given) | i | -0.65
COCCn1c(=S)[nH]c2cc(C(=O)NCC3CCCO3)ccc2c1=O (stereo not given) | i | 0.69
COCCC(=O)N1CCC(n2nccc2NC(=O)CCc2ccccc2)CC1 | i | 0.33
COc1cc(OC)c(/C=N/NC(=O)COc2cccc3cccnc23)c(OC)c1 | i | -0.17
Cc1cccc(Nc2nnc(SCC(=O)NC3CCCc4ccccc43)s2)c1 (stereo not given) | i | 0.22
COc1ccc(C2C3CCCCC3(O)CCN2C(=O)c2cccs2)cc1 (stereo not given) | i | 1.29
CCc1cccc(CC)c1N1C(=O)c2cc(N3CCOCC3)c([N+](=O)[O-])cc2C1=O | i | 0.29
O=C1ON=C(c2ccc([N+](=O)[O-])cc2)/C1=C/c1ccccc1O | i | 0.21
CCOC(=O)c1cc2c(ccn2C)n1Cc1ccc(Cl)cc1 | i | -0.2
COc1ccc(Cc2nc(C(=O)Nc3ccc(F)cc3)cs2)cc1 | i | 1.86
CCc1cccc(OCC(=O)N(C)CC(=O)Nc2cccc(F)c2)c1 | i | 0.19
CCOC(=O)c1c(COc2ccccc2)oc2ccc(O)cc12 | i | -1.18
COCC(=O)c1[nH]c2ccccc2c1C | i | 0.28
COC(=O)c1ccc(Cl)c(NC(=O)CN(c2ccccc2)S(=O)(=O)c2ccc(OC)cc2)c1 | i | -0.49

One compound at a time, from the list above:
Cc1cccc(Nc2nnc(SCC(=O)NC3CCCc4ccccc43)s2)c1 (stereo not given) as listed: KCNQ2 block = i; KCNQ2 block baseline = 0.22
COc1ccc(C2C3CCCCC3(O)CCN2C(=O)c2cccs2)cc1 (stereo not given) as listed: KCNQ2 block = i; KCNQ2 block baseline = 1.29

Source: PubChem
